Compound activity deposited in PubChem BioAssay by National Center for Advancing Translational Sciences (NCATS).
TRPML1 agonist: activates the human TRPML1 channel; Q9GZU1; TRPML1-expressing cells, Ca2+ dye fluorescence, FDSS; host cell line not named in the record; reference of the full effect not given here; activation, % (test concentration not listed); 410,000 tested, 0.12% active; in the data active = activation above about 50%; inconclusive = about 30% to 50%; inactive = below about 30%; note: 0% is about no effect; the text of the record puts the active cut at 80%
Target sequence (Q9GZU1 whole entry, looked up): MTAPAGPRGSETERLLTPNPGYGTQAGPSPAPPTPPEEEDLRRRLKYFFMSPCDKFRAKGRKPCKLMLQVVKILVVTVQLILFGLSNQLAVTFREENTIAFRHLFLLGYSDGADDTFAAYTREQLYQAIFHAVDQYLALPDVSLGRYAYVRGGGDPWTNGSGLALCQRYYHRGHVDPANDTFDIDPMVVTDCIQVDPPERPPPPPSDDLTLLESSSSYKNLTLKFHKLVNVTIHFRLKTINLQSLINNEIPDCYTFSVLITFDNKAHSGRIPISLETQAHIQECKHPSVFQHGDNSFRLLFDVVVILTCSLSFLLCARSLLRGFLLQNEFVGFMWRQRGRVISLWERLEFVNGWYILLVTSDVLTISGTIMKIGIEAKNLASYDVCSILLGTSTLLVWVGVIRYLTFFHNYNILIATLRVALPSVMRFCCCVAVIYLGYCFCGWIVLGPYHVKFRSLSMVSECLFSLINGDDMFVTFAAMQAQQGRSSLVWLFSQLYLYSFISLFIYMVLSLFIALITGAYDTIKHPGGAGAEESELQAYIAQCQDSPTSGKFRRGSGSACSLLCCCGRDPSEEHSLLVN
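In this qHTS format, compounds were pin-transferred onto Ca8-dye-loaded TRPML1-DL cells induced with Tet overnight, and intracellular Ca2+ fluorescence was recorded kinetically for 110 s after a 10 s baseline. A subsequent 4uM final 54-4 (EC80) addition followed by a second 110 s read served as the antagonist phase.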
gsp agonist: gsp mutant agonism. gsp mutant cells, cAMP HTRF, 30 min; control for the full effect not named in the record. Potency, µM (titrated, usually from 76.9 µM), for inactives: at the top dose activation (cAMP increase), most hits filed as activators. 340,000 tested, 0.13% active. AID 624287; active = well fitted activation curve with a large enough effect; inconclusive = small, poorly fitted or top-dose-only effect, or another doubt; inactive = no such curve, though single readings can be large or run the other way; cell line not stated here;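 note: phosphodiesterase inhibitor Ro 20-1724 added with compounds to block cAMP breakdown; potency is the fitted concentration of half-maximal effect; nearly all actives have a fitted effect of over 60% in size; about a fifth of the inactives were tested at one dose only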
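Cells in DMEM/10% FBS with G418 were pretreated with compounds in DMSO plus […] (300 uM stock) for 30 min at 37C. cAMP was measured by HTRF (cAMP-d2 plus anti-cAMP antibody-K) after 30 min at room temperature.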
TRPML1 blocker: inhibitors of human TRPML1 channel | activity change, negative = inhibition, % (no concentration beside the values) | TRPML1-inducible cells, Ca2+ dye fluorescence, FDSS; stronger effect = lower value; inhibition of EC80 agonist-evoked calcium signal | AID 624415 | 390,000 tested, 0.02% active; in the data active means activity change below about -50%; inconclusive means about -30% to -50%; inactive means above about -30%;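 note: stimulus is agonist 54-4 at its EC80 concentration; % is set by controls: 0 for no effect and ±100 for the full control effect; compound concentration not given in the record; the text of the record puts the active cut at -80%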
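TRPML1-DL cells, Tet-induced overnight (~16 h, 37 °C) at 1,500 cells/well, were loaded with Ca8 no-wash dye plus quencher for 45-90 min at room temperature. Compounds were pinned during FDSS kinetic reading; agonist 54-4 at EC80 (4 uM final) then added.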
ClpP mod: qHTS Assay for Activators of ClpP; AID 651965, 2013; purified B. subtilis ClpP, FRET peptide cleavage, 20 min; ATP-dependent Clp protease proteolytic subunit (Bacillus subtilis (strain 168)), P80244; 340,000 tested, 1.9% active; Potency, µM (highest dose often 57.5 µM), for inactives: top-dose activity change, negative = active; active = well fitted falling curve with a large enough effect; inconclusive = small, poorly fitted or top-dose-only effect; inactive = no such curve, though single readings can be large or run the other way; note: potency is the fitted concentration of half-maximal effect; the source files actives as falling curves though it sought activators and does not explain the sign; nearly all actives have a fitted effect of over 65% in size; many hits overshoot -100%
Target sequence (P80244 whole entry, looked up): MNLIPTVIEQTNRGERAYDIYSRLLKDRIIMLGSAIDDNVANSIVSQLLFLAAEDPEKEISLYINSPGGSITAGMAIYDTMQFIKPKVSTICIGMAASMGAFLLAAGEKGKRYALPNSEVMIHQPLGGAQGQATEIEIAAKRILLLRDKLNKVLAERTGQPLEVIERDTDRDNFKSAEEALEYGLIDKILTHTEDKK
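ClpP 10 microg/mL final, pH 8 Tris/KCl buffer with BSA, glycerol, Tween-20; compound pinned in; FRET-FV substrate; RT 20 min; Ex320/Em430; ΔFRET vs ADEP 5.8 microM, DMSO, no enzyme.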
Menin MLL FP FL: menin-MLL binding inhibition, fluorescein peptide | 290,000 tested, under 10 active | FP activity change, % at 61.4 µM | Fluorescence polarization, fluorescein-MLL peptide displacement from menin; inconclusive = falling polarisation curve, or a change in total fluorescence; inactive = total fluorescence flat and polarisation flat or rising; no compound was filed as active; the % refers to the polarisation; negative = inhibition;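 note: % of control where 0% means no effect; inhibitors lower the polarisation; unlabelled MLL peptide was the positive control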
gsp antag: antagonists of gsp mutant (McCune-Albright syndrome) | gsp-mutant cells, cAMP HTRF, 30 min; control for the full effect not named in the record | Potency, µM (titrated, usually from 76.9 µM), for inactives: top-dose activity change, negative = inhibition, usual class: inhibitors | 340,000 tested, 0.4% active; active = falling curve of any shape with a large fitted effect; inconclusive = falling curve, mostly with a smaller effect; inactive = flat or rising curve; cell line not stated here;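 note: intracellular cAMP measured with PDE inhibitor Ro 20-1724 present during compound exposure; potency is the fitted concentration of half-maximal effect; % is set by controls: 0 for no effect and ±100 for the full control effect; nearly all actives have a fitted effect of over 65% in size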
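HTRF cAMP measurement after 30 min RT detection following 30 min, 37C compound treatment alongside […] (added as 300 uM solution) in G418-selected cells seeded at 2000/well and grown 16–24 h.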
Numbers without * were called inactive; ? = inconclusive; . = no result given; & = joins results of further samples; [ ] = remark or other dose. Rows are unselected (roughly 2.1% active in at least one column).

SMILES | TRPML1 agonist | gsp agonist | TRPML1 blocker | ClpP mod | Menin MLL FP FL | gsp antag
CCOc1cccc(CN2CCN(CCCc3ccccc3)C(CCO)C2)c1O (configuration not stated) | 0.6 | 28% | 12 | 1.0% | 0.5 | -1%
CC(C)c1ccc(N(C(=O)c2cc3ccccc3oc2=O)C2C=CS(=O)(=O)C2)cc1 (configuration not stated) | 4.3 | -10% | 11 | -3.4% | 4.5 | -8%
COC(=O)C1=C(O)/C(=C\c2cc(C)n(-c3ccccc3F)c2C)N=C1C | 1.0 | -21% | -8 | . | -0.5 | -1%
NS(=O)(=O)c1ccc(NC(=O)Nc2cccc3ccccc23)cc1 | 0.8 | ? | -5 | -22% | . | -4%
Cc1cccc(NC(=O)c2cnc3sc(N4CCCC4)nn3c2=O)c1C | -0.2 | . | 3 | -8.4% | . | .
CCCN1C(=O)C2(C(C(=O)c3ccc(C)o3)=C(O)C(=O)N2CCCOC)c2ccccc21 (configuration not stated) | -0.4 | 47%[15.4 µM] | 38 | 0.0% | 3.4 | 29%
COc1ccc(C)cc1S(=O)(=O)NC(C)C(=O)NC1CC1 (configuration not stated) | 0.7 | 13% | -2 | -0.7% | -6.3 | 9%
CCOc1cccc(C(=O)Nc2cc(C)c(O)c(-c3nc4ncccc4o3)c2)c1 | 0.1 | . | 23 | -2.7% | . | .
O=C(COC(=O)/C=C/c1ccccc1[N+](=O)[O-])Nc1ccc2[nH]c(=O)[nH]c2c1 | 0.7 | 12% | 5 | . | . | -2%
CCc1nc2c(OCc3ccc(C#N)cc3)cccn2c1N(C)C(=O)c1ccco1 | 3.5 | . | 86 | 0.9% | . | .
Cc1nc(C)c(-c2csc(Nc3ccc(O)c(C(=O)O)c3)n2)s1 | -0.7 | 7%[15.4 µM] | 3 | ? | -0.3 | 1%
O=C(c1csc2ccccc12)N1CCN(c2ccccn2)CC1 | 0.3 | ? | -28 | -9.2% | -2.0 | 0%
CCOC(=O)c1cn(-c2ccc(F)c(F)c2F)c2c(F)c(F)c(F)cc2c1=O | 1.6 | 4% | 13 | 1.6% | 0.8 | 0%
CC(C)C(=O)NNC(=O)CSc1ncnc2c1cnn2-c1ccccc1Cl | 3.9 | 3% | -5 | -1.5% | -1.0 | 6%
CN(Cc1nc(C(c2ccccc2)c2ccccc2)no1)CC1COCCO1 (configuration not stated) | -0.3 | -6%[15.4 µM] | -5 | . | -0.8 | 20%
O=Cc1ccccc1-c1cn(CN2C(=O)c3ccccc3C2=O)nn1 | 0.3&-0.9 | ? | 2 | -1.2%&1.0% | 3.7 | 1%
Cc1c(Cl)c([N+](=O)[O-])nn1CCCC(=O)Nc1cccc(Cl)c1Cl | -0.3 | -6% | -1 | 1.9% | 1.6 | -16%
COC(CN(C)S(=O)(=O)c1cc2c3c(c1)CCC(=O)N3CCC2)OC | 0.3 | ? | 33 | -0.5% | 6.5 | 12%
COc1ccc(C2C(C(=O)NCc3ccccn3)CCC(=O)N2c2cc(OC)c(OC)c(OC)c2)cc1 (configuration not stated) | -0.8 | 1% | 20 | . | -0.6 | 9%
Cc1ccc(-n2c(C)cc(C(=O)COC(=O)C3=NNC(=O)CC3)c2C)cc1 | -1.4 | -20% | 18 | 1.2% | -3.2 | 3%
O=C(/C(=N/N=C/c1ccc(O)c(O)c1)c1ccccc1)c1ccccc1 | 0.8 | -3% | -6 | 1.2% | 2.7 | -7%
CNC(=O)/C(=C\c1ccc2c(c1)OCO2)NC(=O)c1ccc(Br)cc1 | -0.3 | 9% | 45 | -3.7% | 2.9 | 8%
CCOC(=O)c1c(C)c(C(=O)NCc2ccc(Cl)cc2)c(C)n1C | -0.1 | . | -8 | -1.0% | . | .
CCOc1cc(/C=N/NC(=O)CSc2cccc3cccnc23)ccc1O | -0.1 | ? | -5 | . | 0.1 | 18%
CCC(C)(C)c1ccc(Oc2ccc(NC(=O)COC(=O)C3=COCCO3)cc2)cc1 | 2.0 | -15% | 4 | 1.7% | -0.4 | -16%
More results follow:
SMILES | TRPML1 agonist | gsp agonist | TRPML1 blocker | ClpP mod | Menin MLL FP FL | gsp antag
Cc1ccc(C)c(C(=O)CCC(=O)NCc2ccc(Cl)cc2)c1 | 1.3 | 20% | -12 | 0.0% | 5.5 | -3%
Cc1ccc(F)cc1NC(=O)Cc1nn(C)c(=O)c2ccccc12 | 1.3 | 1% | 29 | -2.1% | -1.6 | -10%
COC(=O)N/N=C/c1cc(N=Nc2ccccc2)ccc1O | 0.3 | 11%[15.4 µM] | -2 | . | 1.8 | -17%
O=C(C1=C(O)C(=O)N(CCN2CCOCC2)C1c1cccc(O)c1)c1cc2ccccc2o1 (configuration not stated) | -0.4 | ? | 31 | 13% | 1.9 | 11%
Cc1cc(C)c(C(=O)N(C)CC2CCCN(CCc3ccccc3F)C2)o1 (configuration not stated) | 0.9 | -111%[inhibitor] | -14 | -1.6% | 2.1 | -6%
NS(=O)(=O)c1ccc(NC(=O)CSc2nc(Nc3ccccc3)nc(N3CCOCC3)n2)cc1 | 0.1 | 16% | 2 | -0.4% | . | -9%
Clc1ccc(CNc2ncccn2)cc1 | -1.4 | 1%[15.4 µM] | 2 | 0.6% | 1.4 | 14%
O=C(O)c1ccc(CSc2nnnn2C2CCCCC2)cc1 | 0.1 | ? | -15 | -0.7% | 1.1 | 3%
Cc1ccc(Nc2nc(C)c3c(n2)CC(C)CC3=O)c(C)c1 (configuration not stated) | 2.0 | 36%[15.4 µM] | 20 | . | -0.8 | -1%
O=C(O)c1n[nH]nc1-c1ccccc1 | 0.6 | 15%[15.4 µM] | -19 | . | 2.4 | 3%
CCC(C)NC(=O)Cn1c(=O)n(-c2ccc(C)c(C)c2)c(=O)c2c3c(sc21)CCCCC3 (configuration not stated) | 0.0 | . | -7 | 2.7% | . | .
COc1ccc(OC)c(-c2csc(-c3cccs3)n2)c1 | 1.4 | 38% | -2 | . | -0.8 | -10%
O=C(CCCCCn1c(=O)[nH]c2ccsc2c1=O)NCc1ccccc1 | -0.6 | . | -1 | 0.6% | . | .
CCOc1cc(S(=O)(=O)N2CCN(c3ccc(F)cc3)CC2)c(OCC)cc1-n1cnnn1 | 0.5 | -1% | 12 | -19% | -1.1 | 7%
CC(C)CC(=O)Nc1cccc(-c2nc3ccccc3[nH]2)c1 | -0.6 | -35%[inhibitor] | 11 | 3.8%&5.2% | 3.7 | -6%
O=C(CCCc1ccccc1)NCCCc1ccccc1 | 0.4 | -1%[15.4 µM] | 12 | -0.6% | -4.1 | 4%
Cc1ccc(C(=O)Nc2nccs2)cc1S(=O)(=O)N1CCCCC1 | -0.7 | -38%[inhibitor] | 0 | 0.9% | 2.3 | 1%
O=C(Nc1ccccc1C(=O)NCCCn1ccnc1)c1ccc(Cl)cc1Cl | -0.7 | 15% | -5 | 1.6% | 4.6 | -5%
Cc1ccc(C(=O)CNc2cc(C)ccc2C)cc1 | 1.7 | -12% | 17 | . | -4.1 | 4%
COc1ccc(C(C)C)cc1S(=O)(=O)Nc1ccncc1 | -0.2 | 10%[15.4 µM] | 14 | . | 0.9 | .
CCOC(=O)c1c(NC(=O)c2ccco2)n(C2CCCCC2)c2nc3ccccc3nc12 | 0.7 | ? | 0 | 28µM* | 16 | -14%
Cn1cccc1CN1CCC[C@]2(N[C@H](c3ccc(C(F)(F)F)cc3)[C@@H]3C(=O)N(Cc4ccccc4)C(=O)[C@@H]32)C1=O | 0.2 | -95%[inhibitor] | -12 | 0.7% | . | .
COc1cc(NC(=O)c2ccccc2Cl)ccc1NC(=O)c1cccs1 | 0.5 | 3%[15.4 µM] | -19 | -0.9% | 2.0 | -13%
Cc1noc(C)c1COC(=O)[C@H](C)NS(=O)(=O)c1ccc(Cl)c(Cl)c1 | 0.1 | -20% | -2 | 0.9% | 1.8 | ?
COc1ccc(CNC(=O)C(=O)NCC2OCCCN2S(=O)(=O)c2cccs2)cc1 (configuration not stated) | 1.2 | 9% | 33 | -9.7% | -2.0 | 6%

Given as comma-separated lines: part of the list above
Structure,TRPML1 agonist,gsp agonist,TRPML1 blocker,ClpP mod,Menin MLL FP FL,gsp antag
O=C(CCCc1ccccc1)NCCCc1ccccc1,0.4,-1%[15.4 µM],12,-0.6%,-4.1,4%
Cc1ccc(C(=O)Nc2nccs2)cc1S(=O)(=O)N1CCCCC1,-0.7,-38%[inhibitor],0,0.9%,2.3,1%
O=C(Nc1ccccc1C(=O)NCCCn1ccnc1)c1ccc(Cl)cc1Cl,-0.7,15%,-5,1.6%,4.6,-5%
Cc1ccc(C(=O)CNc2cc(C)ccc2C)cc1,1.7,-12%,17,.,-4.1,4%

Other results
SMILES | TRPML1 agonist | gsp agonist | TRPML1 blocker | ClpP mod | Menin MLL FP FL | gsp antag
CC1CCCCN1C(=O)c1ccc2c(c1)N(Cc1ccc(Cl)cc1)C(=O)c1ccccc1S2=O (configuration not stated) | -0.6 | . | -2 | 0.5% | . | .
Cc1nnc(SCC(=O)Nc2ccc3c(c2)OCCO3)n1CC1CCCO1 (configuration not stated) | 3.3 | 3% | -30 | 0.0% | 2.1 | 0%
Nn1c(SCC(=O)Nc2ccc(N3CCOCC3)cc2)nnc1-c1ccccc1F | 1.0 | -4% | 6 | -1.8% | . | 1%
O=C(NCCCN1CCCCCC1)C1CC(=O)N(C2CCCC2)C1 (configuration not stated) | 1.1 | 1% | 8 | -2.6% | 6.8 | 8%
CC(C)NS(=O)(=O)c1ccc(OCC(=O)Nc2ccc3c(c2)OCCO3)cc1 | -0.2 | -2% | -14 | -1.9% | 1.3 | 0%
CC(C)Oc1ccc(N2CC(C(=O)Nc3ccc(N4CCOCC4)cc3)CC2=O)cc1 (configuration not stated) | 0.2 | 3% | -4 | -3.1% | 4.3 | 10%
O=C(OCC(=O)c1ccc[nH]1)c1ccc(F)c(S(=O)(=O)N2CCOCC2)c1 | 0.1 | ? | -19 | -2.4% | . | 5%
CC1CCC2(CC1)C(Nc1cccc(Cl)c1)=NC(=S)N2CC#N (configuration not stated) | 0.4 | 16% | 3 | 0.8% | 7.9 | -4%
CCC(C)NC(=O)CSc1nc2n[nH]c(C)c2c(=N)n1-c1cc(Cl)ccc1C (configuration not stated) | 0.3 | . | 7 | -30% | . | .
COC(=O)[C@@]1(Cc2ccccc2)[C@H]2C(=O)N(C)C(=O)[C@H]2[C@H]2CN=C(SCc3ccccc3)N21 | 0.6 | . | 20 | -2.2% | . | -1%
COCc1nnc(NC(=O)c2cc(C(=O)OC)cc([N+](=O)[O-])c2)s1 | 0.6 | -3% | -20 | -1.0% | 3.7 | ?
CC1CCN(c2ccc(-c3cccs3)nn2)CC1 | 1.7 | -32%[inhibitor] | -4 | -14% | -4.0 | -13%
